# Screening results (PubChem BioAssay)
# Sfp PPTase inh: inhibitors of Bacillus subtilis Sfp phosphopantetheinyl transferase | Q9F4F7 | Potency, µM, for inactives: max response, negative = inhibition, hits mostly inhibitors | Biochemical Sfp PPTase activity, qHTS | 310,000 compounds, 3.5% hits | AID 1490; active means well fitted inhibition curve with a large enough effect; inconclusive means small, poorly fitted or top-dose-only effect, or another doubt; inactive means no such curve, though single readings can be large or run the other way;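 further: the enzyme is Sfp with the accession as filed and its product quenches rhodamine fluorescence; potency means the concentration at half of the fitted maximal effect; 0% = enzyme reaction without inhibitor and -100% = no enzyme wells; top concentration of the series not given in the record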
#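 Reaction rates are the 30-min fluorescence difference (ex 525, em 598 nm) in wells containing 15 nM Sfp, 5 uM rhodamine-CoA and 12.5 uM BHQ-2-YbbR at pH 7.6 with 10 mM MgCl2.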
# PINK1 expr mod: changes PINK1 expression; AID 624263; Potency, µM (top dose mostly 76.6 µM), for inactives: at the top dose activation (PINK1 increase), usual class: activators; 410,000 compounds, 0.2% hits; PINK1 immunofluorescence, high-content cytometry, 24 h; active = well fitted activation curve with a large enough effect; inconclusive = small, poorly fitted or top-dose-only effect; inactive = flat fitted curve, though single readings scatter; cell line not stated here;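 further: potency means the concentration at half of the fitted maximal effect; % of control where 0% means no effect; nearly all actives have a fitted effect of over 65% in size; a mitochondrial uncoupler was the plate control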
#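 Fluorescence from anti-PINK1 antibody, together with nuclear and cell stains, was scanned on a laser-scanning cytometer. Before staining, stable-line cells were incubated 24 hours with compounds at 5 concentrations; primary antibody 12 h at 10 degrees C.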
# Six1-Eya2 inh: blocks human Six1 binding to Eya2; Q15475+O00167; activity change, % (no concentration beside the values); 360,000 compounds, 0.56% hits; AlphaScreen GST-Six1/His-Eya2 binding, biochemical; hits give low values; control for the full effect not named in the record; in the data active = activity change below about -65%; inconclusive = about -30% to -65%; inactive = above about -30%; further: on the % scale 0 is the no-effect control and ±100 the full control effect
# Target sequence (O00167 whole entry, looked up): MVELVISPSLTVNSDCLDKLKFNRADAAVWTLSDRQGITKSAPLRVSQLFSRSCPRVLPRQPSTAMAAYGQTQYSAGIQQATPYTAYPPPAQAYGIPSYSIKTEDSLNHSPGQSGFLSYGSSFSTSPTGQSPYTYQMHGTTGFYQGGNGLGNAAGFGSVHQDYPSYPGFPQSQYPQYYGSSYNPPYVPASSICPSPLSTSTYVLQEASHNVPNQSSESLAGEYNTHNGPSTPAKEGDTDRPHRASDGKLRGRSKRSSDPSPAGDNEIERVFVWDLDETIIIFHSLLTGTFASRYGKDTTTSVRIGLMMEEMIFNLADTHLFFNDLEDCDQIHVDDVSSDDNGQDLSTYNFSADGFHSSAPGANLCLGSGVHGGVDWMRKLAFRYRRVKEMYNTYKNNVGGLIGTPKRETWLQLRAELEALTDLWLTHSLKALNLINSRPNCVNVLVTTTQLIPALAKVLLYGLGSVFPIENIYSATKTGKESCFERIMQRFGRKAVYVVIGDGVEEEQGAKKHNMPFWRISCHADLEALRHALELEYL
# Target sequence (Q15475 whole entry, looked up): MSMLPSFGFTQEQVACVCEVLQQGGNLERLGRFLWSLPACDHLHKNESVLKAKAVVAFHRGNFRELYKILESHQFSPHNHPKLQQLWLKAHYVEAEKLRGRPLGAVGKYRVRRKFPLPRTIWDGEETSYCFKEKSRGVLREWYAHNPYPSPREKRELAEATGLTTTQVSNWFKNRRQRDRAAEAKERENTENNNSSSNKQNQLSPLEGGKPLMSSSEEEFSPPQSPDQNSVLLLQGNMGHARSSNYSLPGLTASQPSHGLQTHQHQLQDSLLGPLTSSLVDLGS
#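 GST-Six1 + His-Eya2 (5X stock: 250/500 nM); Tris pH 8.0, 300 mM NaCl, 0.05% BSA, 0.02% Tween 20; GSH donor/Ni acceptor beads; 1 h 37 °C dark; AlphaScreen readout.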
# TRPV1 potentiator: potentiators of human vanilloid receptor 1 (TRPV1); Q8NER1; 320,000 compounds, 0.02% hits; potentiation, % at 8.33 µM; TRPV1-expressing cells, Fluo-8 calcium influx, capsaicin EC20 potentiation; host cell line not named in the record; control for the full effect not named in the record; active means potentiation above 80%; inconclusive means 30% to 80%; inactive means below 30%; further: 0% is about no effect
#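 Fluo-8 calcium influx in TRPV1-expressing cells, kinetic read (ex 480/em 520 nm). Compound added and read 3 min for agonist activity, followed by capsaicin at EC20 final and 2 min further read for enhancement.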
# D2 PAM: human D2 receptor positive allosteric modulation; DiscoveRx D2 beta-arrestin cells, luminescence, 90 min; 100% = 57 uM dopamine signal; potentiation, % (concentration not given with the values); 360,000 compounds, 0.23% hits; AID 624464; active = potentiation of 50% or more; inconclusive = 30% to 50%; inactive = 30% or less;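 further: tested on top of an EC20 dose of dopamine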
#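 PathHunter beta-arrestin assay in DiscoveRx D2 cells. Compounds were added with an EC20 of dopamine (50 nM final) for 90 min at 37 deg C. Luminescence was read 1 h after detection reagent, with 57 uM dopamine as the EC100 control.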
# D2 ag: human D2 receptor agonism in beta-arrestin assay. P14416. DiscoveRx PathHunter D2 beta-arrestin, luminescence, 90 min; 100% = 57 uM dopamine signal. activation, % (concentration not given with the values). 360,000 compounds, 0.084% hits. AID 624465; in the data active = activation above about 40%; inconclusive = about 15% to 40%; inactive = below about 15%; further: the text of the record calls up to 30% inactive
#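 Agonist mode: compounds alone added to overnight-plated D2 PathHunter cells for 90 min at 37 C, with 57 uM final dopamine (EC100) defining full response. Beta-arrestin recruitment detected by chemiluminescent reagent, read after 1 h at ambient temperature.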
# CtBP-E1A inh: blocks the CtBP interaction with E1A. AlphaScreen GST-E1A/His-CtBP binding, 1536-well; hits give low values; control for the full effect not named in the record. activity change, % (no concentration beside the values). 340,000 compounds, 0.49% hits. AID 651724; in the data active means activity change below about -65%; inconclusive means about -30% to -65%; inactive means above about -30%; further: on the % scale 0 is the no-effect control and ±100 the full control effect
#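 AlphaScreen with 125 nM GST-E1A and 125 nM His-CtBP (5X stocks) in Tris pH 8.0, 300 mM NaCl, BSA, Tween 20, TCEP. Compounds preincubated 2 h at 37 deg C, then glutathione donor/nickel acceptor beads added for 1 h at 37 deg C in dark.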
# * hit, by the source's call; ? = inconclusive; . = no result given; [ ] = dose if it differs, or a comment.
SMILES,Sfp PPTase inh,PINK1 expr mod,Six1-Eya2 inh,TRPV1 potentiator,D2 PAM,D2 ag,CtBP-E1A inh
Cc1ccc(S(=O)(=O)NCC(C)n2cncn2)cc1C (centres undefined),1%,1.5%,7,0,-5,3.1,0
COc1ccccc1NC(=O)N1CCCC1C(=O)NCc1ccc2c(c1)OCO2 (centres undefined),21%,-1.5%,0,8,-8,-3.7,5
Cc1ccc(N2C(=O)CC(c3c[nH]c4ccccc34)C2=O)cc1 (centres undefined),4%,-1.2%,-7,6,-4,-0.1,-3
COc1ccc(-c2noc(N3CCC(C(=O)NCc4ccc(Cl)cc4)CC3)n2)cc1,-24%,10%,5,-3,-6,-3.4,1
O=C(CN1C(=O)C2CCCCC2C1=O)Nc1cc(C(F)(F)F)ccc1N1CCCC1 (centres undefined),.,4.1%,22,19,-23,-6.6,6
O=C(Nc1ccc(S(=O)(=O)Nc2ncccn2)cc1)C12CC3CC(CC(C3)C1)C2,3%,1.4%,12,-11,6,-1.2,1
CCCCn1c(N)c(N(CCOC)C(=O)CN(C)S(=O)(=O)c2ccc(C)cc2)c(=O)[nH]c1=O,.,0.2%,10,3,5,-4.1,0
Cc1cc(NS(=O)(=O)c2ccc(NC(=O)NC3CCCCC3)cc2)no1,-11%,5.0%[38.3 µM],5,-1,3,2.9,3
CCNC(=S)N1CCN(c2ccccn2)CC1,?,0.3%,0,-15,3,4.4,0
CC1CN(C(=O)COc2ccc3ccccc3c2Br)CC(C)O1 (centres undefined),1%,1.7%,8,-9,4,3.9,-2
CCOc1ccccc1NC(=O)COC(=O)Cc1cccs1,7%,-0.7%,10,-4,0,-3.2,3
Cc1ccc(C(CC(=O)NCCCN(C)C)c2ccc(OC(C)C)cc2)cc1 (centres undefined),-21%,2.0%,1,-7,-12,-4.3,-1
CS(=O)(=O)c1ccc(Cl)c(NC(=O)c2ccc(-n3cncn3)c([N+](=O)[O-])c2)c1,.,1.7%,1,.,-4,-0.6,0
CC(C)OCc1c(C(=O)Nc2nccs2)oc2ccccc12,0%,2.4%,-12,-20,2,-5.5,-7
COc1ccccc1NC(=O)c1ccc(N)cc1,12%,-1.9%[38.3 µM],0,?,-11,0.8,9
COc1ccc(OC)c(NC(=O)COC(=O)Cc2ccsc2)c1,.,3.1%,2,.,-17,-3.0,-4
CC1(C(=O)NS(=O)(=O)Cc2cccc(Cl)c2)CCN1C(=O)c1cccc(F)c1 (centres undefined),.,-0.6%,1,.,-4,-4.0,-3
O=C(Nc1ccc(F)cc1)C1CCCCC1,-4%,1.9%,2,?,-8,0.1,8
CCOC(=O)C1Nc2ccccc2C2C(O)C(O)CC12 (centres undefined),.,6.0%,-2,.,-24,-9.2,-12
CCCNC(=S)Nc1cccc(C(F)(F)F)c1,-3%,-0.1%,3,-11,-22,1.0,1

# Rewritten with values under each structure: part of the list above.
# Sequence of screens: Sfp PPTase inh, PINK1 expr mod, Six1-Eya2 inh, TRPV1 potentiator, D2 PAM, D2 ag, CtBP-E1A inh
CS(=O)(=O)c1ccc(Cl)c(NC(=O)c2ccc(-n3cncn3)c([N+](=O)[O-])c2)c1
    ., 1.7%, 1, ., -4, -0.6, 0
CC(C)OCc1c(C(=O)Nc2nccs2)oc2ccccc12
    0%, 2.4%, -12, -20, 2, -5.5, -7
COc1ccccc1NC(=O)c1ccc(N)cc1
    12%, -1.9%[38.3 µM], 0, ?, -11, 0.8, 9

# Next section.
SMILES,Sfp PPTase inh,PINK1 expr mod,Six1-Eya2 inh,TRPV1 potentiator,D2 PAM,D2 ag,CtBP-E1A inh
OCC(O)C(O)C(O)C(O)C1NCCS1 (centres undefined),-3%,.,-4,2,1,-1.2,6
CCO/C=N/c1c(C#N)c2c(c(=S)n1C)COC(C)(C)C2,-3%,-1.3%,-11,6,-20,-4.0,0
C=CCNC(=O)NC(=O)COC(=O)[C@H](C)NS(=O)(=O)c1c(C)c(C)cc(C)c1C,16%,-0.6%,2,3,-2,0.7,.
Cc1c(Cl)cccc1NCC(=O)Nc1ccc(Cl)cc1F,5%,?,7,-16,-16,0.7,1
CSc1nnc2c(n1)OC=Nc1ccccc1-2,18%,-0.2%,-3,-3,-11,-5.2,-3
Cc1ccnc(SCc2cc(=O)c(OC(=O)c3cccs3)co2)n1,5%,5.8%,2,3,2,2.6,5
NN=C1C(=O)c2cccc3cccc1c23,.,-2.8%,-7,.,-36,-17,-9
CC1CCCC(NC(=O)C2CCN(S(=O)(=O)N3CCCCC3)CC2)C1C (centres undefined),-14%,3.4%,8,-5,-2,-4.2,-2
COc1nnc(-c2ccc(N3CCCCC3)c(NC(=O)COc3ccccc3)c2)c2ccccc12,.,2.8%,1,.,-8,-1.7,9
Cn1c(=O)c2c(nc(CN3CCN(C(c4ccccc4)c4ccccc4)CC3)n2CC(N)=O)n(C)c1=O,13%,2.8%[38.3 µM],0,-2,11,-2.4,50
CC1=C(C(=O)N(C)C)CC(CC(=O)NCCc2ccccn2)C(=O)N1CCC1=CCCCC1 (centres undefined),.,1.7%,-5,.,-2,-10,-2
Cc1ccc(C(=O)Oc2cccc(NC(=O)c3ccccc3)c2)cc1C,12%,1.5%,3,2,3,-2.9,1
CCc1ccc(N2CC(C(=O)OCc3nc4ccsc4c(=O)[nH]3)CC2=O)cc1 (centres undefined),.,0.3%,-13,12,-2,0.0,-16
COc1ccc(C2NC(=O)C(=O)/C2=C(\O)c2ccc(Cl)cc2)cc1OC (centres undefined),-8%,1.5%,0,-45,-7,2.6,.
CCOC(=O)N1CCN(C(=O)CSc2nc3nc(C)cc(C)n3n2)CC1,.,2.8%,-8,.,-4,0.2,8
CSCCC(NC(=O)c1ccccc1)C(=O)NCc1ccc(S(N)(=O)=O)cc1 (centres undefined),10%,-0.5%,0,21,0,1.9,.
COc1ccc(S(=O)(=O)Nc2ccc(C)cn2)cc1,28%,2.7%,-8,-13,-2,-1.5,-3
CC(C)c1ccc(NC2CCCN(C(=O)CC3CCCC3)C2)cc1 (centres undefined),2%,6.9%,-27,6,-14,-2.7,.
Cc1cc(Cl)ccc1C(=O)C1CCCN(C(=O)c2n[nH]c3c2CCCC3)C1 (centres undefined),-8%,-0.3%,1,-6,1,3.4,3
CN(C(=O)c1ccccc1F)C(c1ccccc1)c1ccccc1,1%,0.7%,6,-13,-7,-4.2,-1
C=CCOc1cccc(/C=C/c2nc3ccccc3c(=O)[nH]2)c1,-5%,8.7%,3,?,-7,-3.7,2
Cc1cccc(C)c1Cn1c(C)c(C(=O)NCc2ccccc2C(F)(F)F)sc1=O,.,1.4%,1,.,0,3.3,-3
CCCOP(=O)(OCCC)C(Nc1ccc(C(=O)O)cc1)c1ccccc1 (centres undefined),-17%,0.6%,6,2,-9,-0.5,0
COc1ccc(CC(=O)OCC(=O)Nc2ccc(OC(F)F)cc2)cc1OC,.,-1.6%,0,-7,-2,-4.2,0
CCC(=O)Nc1ccc(-c2csc(NNC(C)=O)n2)cc1,-18%,1.7%,2,21,-5,-0.7,-9
O=C(CN1CCc2ccccc2C1)Nc1ccccc1C(F)(F)F,-23%,5.4%,20,-3,-2,13,4
Cc1ccc(N2CC(C(=O)Nc3cccc(F)c3)CC2=O)cc1 (centres undefined),13%,.,3,-16,-7,-2.6,6
O=C(Nc1ccccc1Oc1ccccc1)c1cc([N+](=O)[O-])ccc1Cl,-4%,-1.3%,-25,-4,-17,-1.1,-7
N#C/C(C(N)=O)=C1/SC(Cc2ccc(F)cc2)C(=O)N1c1ccccc1 (centres undefined),10%,-3.7%,6,11,0,-2.2,0
COc1cccc(-c2ccc3c(c2)O[C@@H](CN(C)C(=O)C2CCOCC2)[C@H](C)CN([C@H](C)CO)S3(=O)=O)c1,.,0.1%,-1,.,2,-3.2,5
O=C1CCCC/C=C\C[C@H](CC(=O)N(CCO)Cc2ccccc2)C(=O)N[C@@H](Cc2ccccc2)CO1,.,0.1%,-3,.,-37,-2.0,2
Cc1cccc(NC(=S)NC(=O)c2ccco2)n1,-12%,-0.8%,?,-3,-6,-5.8,3
NC(=O)c1ccc(NC(=O)c2ccc(COc3ccccc3Br)cc2)cc1,.,1.2%,5,-1,-16,-5.5,1
Cc1cc(C(=O)NNC(=O)c2ccc(C(F)(F)F)cc2)no1,7%,-1.7%,-2,2,-6,-1.4,-2
COC(=O)COc1ccc(S(=O)(=O)NCCC2=CCCCC2)cc1Cl,3%,-1.1%[38.3 µM],3,-12,-6,-0.2,3
O=C(COC(=O)c1cccnc1Cl)NCc1ccc(F)cc1,.,0.4%,7,.,9,-1.8,.
FC(F)(F)c1cnc(NNC(=S)Nc2ccccc2Cl)c(Cl)c1,3%,?,-21,8,-30,-17,-19
CC1Cc2cc(/C(O)=C3/C(=O)C(=O)N(CCCn4ccnc4)C3c3ccc(F)cc3)ccc2O1 (centres undefined),20%,-0.1%,-5,7,-3,-1.2,-2
COc1cccc(NC(=O)Cc2nnc(SCC(=O)c3ccccc3)n2C)c1,?,2.9%,6,14,-1,-0.8,-6
COc1ccc(NC(=S)NCCc2c[nH]c3ccccc23)cc1,18%,4.8%,-3,4,0,-3.1,-7
CC(=O)Nc1cc(C(=O)O)ccc1S(=O)(=O)c1ccc(Cl)cc1,-18%,4.6%[38.3 µM],1,-30,-12,-1.0,-1
O=C(CSC1CCCCC1)Nc1ccccc1Br,19%,11%,18,-7,-19,-5.5,9
CCC(c1nnnn1-c1ccc2c(c1)OCCO2)N1CCN(C(C)=O)CC1 (centres undefined),.,0.1%,7,.,.,.,4
CN1CCN(S(=O)(=O)c2ccc3[nH]cc(C(=O)O)c(=O)c3c2)CC1,1%,-3.4%[38.3 µM],1,12,0,3.6,7
COc1ccc(-n2ncc3c2CC(C)(C)CC3NC(=O)CCc2c(C)noc2C)cc1 (centres undefined),19%,0.5%,2,-9,-24,-1.3,0
CC(=O)Cn1c(CN2CCN(C(=O)c3ccco3)CC2)nc2c1c(=O)n(C)c(=O)n2C,1%,-0.8%,-14,-4,-10,-1.1,-19
CCOc1ccc(S(=O)(=O)Nc2ccc(C(=O)N3CCCC3)cc2)cc1C(N)=O,12%,3.2%,-3,-4,3,6.0,.
CCc1ccc(OCC(=O)N2CCN(c3ccccc3F)CC2)cc1,1%,-0.4%,3,-10,-19,3.1,-4
COc1ccc(-c2n[nH]c(=S)n2-c2ccc3c(c2)OCCO3)cc1,?,0.8%,-5,18,-7,2.8,.
CN(C)/C=C(\C#N)C(=O)Nc1ccc(F)c(Cl)c1,9%,8.4%,7,-11,-18,-6.0,.
